KCNQ2 enhance: enhances the rat KCNQ2 potassium channel; O88943; CHO-K1 KCNQ2, FluxOR thallium flux fluorescence; hits give high values; B-score at 10 µM; actives 0.54% (n = 310,000);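 active means fluorescence ratio B-score at least 3 SD of library B-scores, with initial fluorescence B-score within 3 SD, cut at about 5.3 in these data; same plate scores as AID 2156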;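 further: B-score of peak minus minimum over baseline fluorescence ratio after K+ and Tl+ stimulus; positive B-score means potentiation of KCNQ2 with more thallium influx and brighter signal; only the inactives scoring about 0 or higher are listed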
Target sequence (O88943 whole entry, looked up): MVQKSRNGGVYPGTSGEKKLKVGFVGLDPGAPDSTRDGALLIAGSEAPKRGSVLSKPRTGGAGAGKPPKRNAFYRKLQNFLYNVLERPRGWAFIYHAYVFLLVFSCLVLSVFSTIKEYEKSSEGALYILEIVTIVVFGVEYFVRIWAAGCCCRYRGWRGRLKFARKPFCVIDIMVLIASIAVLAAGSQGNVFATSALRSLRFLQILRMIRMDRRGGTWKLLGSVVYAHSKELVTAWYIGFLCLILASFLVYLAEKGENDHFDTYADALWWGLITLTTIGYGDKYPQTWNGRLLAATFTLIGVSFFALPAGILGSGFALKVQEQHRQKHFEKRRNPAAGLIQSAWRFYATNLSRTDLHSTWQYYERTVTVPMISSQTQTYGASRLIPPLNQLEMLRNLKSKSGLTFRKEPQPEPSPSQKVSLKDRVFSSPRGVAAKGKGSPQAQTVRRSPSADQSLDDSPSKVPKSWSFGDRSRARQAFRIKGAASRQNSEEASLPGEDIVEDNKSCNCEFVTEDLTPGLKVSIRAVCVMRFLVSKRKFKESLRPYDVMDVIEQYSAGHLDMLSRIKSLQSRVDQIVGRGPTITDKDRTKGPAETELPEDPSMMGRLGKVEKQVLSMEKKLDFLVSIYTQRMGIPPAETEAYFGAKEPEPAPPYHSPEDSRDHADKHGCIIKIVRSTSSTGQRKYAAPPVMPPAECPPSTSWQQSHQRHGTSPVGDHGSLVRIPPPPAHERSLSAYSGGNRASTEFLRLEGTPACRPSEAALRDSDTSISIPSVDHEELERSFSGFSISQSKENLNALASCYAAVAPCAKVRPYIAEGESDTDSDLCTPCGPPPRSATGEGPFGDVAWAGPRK
KCNQ2 enhance baseline: also measured in KCNQ2 enhance; calls as there; B-score; compound at 10 µM; measured here: initial fluorescence intensity artifact check;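 brightness before thallium and not channel activity; 0 = typical well and far values either way flag optical interference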
* marks the source's active call; other numbers are inactive results; . = no result given. These rows are one share of the data; count on the stated rates, not on these rows.

KCNQ2 enhance	KCNQ2 enhance baseline	canonical_smiles
1.6	-1.5	COCC(C)n1c(C)cc(C(=O)COC(=O)c2ccc(N3CCCC3=O)cc2)c1C (configuration not stated)
0.11	0.53	COC(=O)c1ccc(NC(=O)c2snnc2-c2ccccc2)cc1
0.31	0.79	CCOC(=O)c1c(C)n(C)c2ccc(O)c(CN3CCN(C)CC3)c12
0.15	1.1	O=c1sc(/C=N/Nc2ccccc2)c(Cl)n1Cc1ccccc1
1.9	-2	O=[N+]([O-])c1ccc(OCC(O)CN(CCO)CCO)cc1 (configuration not stated)
1.1	-2.6	COc1cc(C(=O)Nc2ccc(S(=O)(=O)N(C)c3ccccc3)cc2)cc(OC)c1OC
1.2	0.22	O=C(Cc1c(F)cccc1Cl)NCc1cccnc1
1.6	0.19	C/C(=N/OC(=O)c1cccc(C(F)(F)F)c1)c1cnccn1
0.83	0.05	COc1nccnc1NS(=O)(=O)c1ccc(NC(=S)NC(=O)/C=C/c2ccccc2)cc1
0.07	-0.87	Cc1ccc(-n2ncc3c2ncn2nc(-c4ccco4)nc32)c(C)c1
1.4	-1.8	Cc1cc(C)n(C(=O)/C(C#N)=C/N(C)C)n1
0.45	-0.95	Cc1nonc1C(=O)N/N=C/c1ccncc1
1.3	0.31	O=C(NCc1cccs1)c1ccc(CS(=O)Cc2cccc(Cl)c2)o1 (configuration not stated)
0.09	1.4	O=c1oc(-c2ccccc2[N+](=O)[O-])nc2ccccc12
1.2	0.04	CCOc1ccc(OCCCC(=O)N2CCN(S(=O)(=O)c3ccc(Cl)cc3)CC2)cc1
1.2	-1.7	CCN(C(=O)Cn1nc(C(=O)O)c2ccccc2c1=O)C1CCCCC1
0.19	-1.7	CC(=O)Nc1nnc(SCc2ccc(F)cc2)s1
1.9	-1.3	COc1cc(C2NC(=O)NC(O)(C(F)(F)F)C2C(C)=O)cc(OC)c1OC (configuration not stated)
0.25	-0.19	CCOc1ccc(CCNC(=O)COC(=O)c2cccc(S(=O)(=O)N3CCOCC3)c2)cc1OCC
0.98	0.5	CCc1ccc(CN2CCC(n3nccc3NC(=O)c3ccc4c(c3)OCO4)CC2)cc1
0.86	-0.41	COC(=O)COc1cccc2c(=O)n(CC(=O)NCCc3ccc(OC)c(OC)c3)ccc12
1.9	1.1	COc1ccc(NC(=O)CSc2nnnn2C2CCCC2)c(OC)c1
0.16	0.52	CCOc1ccc2nc(NC(=O)NC3CCCCC3)sc2c1
0.07	0.02	CCOc1cc(/C=C2/C(=O)NN(c3cccc(Cl)c3)C2=O)ccc1O
0.03	-0.47	CSCc1nnc(NC(=O)c2ccc(S(=O)(=O)N(C)C)cc2)o1
0.98	0.14	Cc1cc(N/C(=N\S(=O)(=O)c2ccc(F)cc2F)c2ccccc2)no1
2.2	-1.1	COc1cc(/C=N/NC(=O)c2cccc3ccccc23)cc(OC)c1OC
0.01	-2.3	COc1ccc(NC2=CC(c3ccc(OC)cc3)N(c3ccc(OC)cc3)C2=O)cc1 (configuration not stated)
1.3	-0.02	O=C(O)CCn1cc(/C=C/C(=O)c2ccc(Cl)cc2)c(-c2cccc(Br)c2)n1
0.25	1.1	COc1cccc2cc(-c3ccccc3)oc12
0.17	0.69	CCOC(=O)c1ccccc1NC(=S)N1CCN(C(=O)c2ccco2)CC1
0.75	0	O=c1[nH]c(=S)[nH]c2nc(-c3ccccc3)cnc12
-5.6	.	O=C(COc1cccc(C(F)(F)F)c1)NCC(c1ccco1)N1CCCCC1 (configuration not stated)
1.5	-0.93	COc1ccccc1CNc1ncnc2nc[nH]c12
0.19	2.5	COc1ccccc1NS(=O)(=O)c1cccc(C(=O)NC2CCN(Cc3ccccc3)CC2)c1
0.4	0.81	O=C(NCCc1ccncc1)Nc1ccccc1Cl
0.09	-0.88	CCCn1c(N)c(N2CCCCC2)c(=O)n(CC(=O)Nc2ccc(OC(F)(F)F)cc2)c1=O
1.5	-0.18	O=C(Nc1ccccc1F)Nc1ccccc1Br
0.02	-0.03	CCOC(=O)Cc1cnc(N)s1
3.5	-0.81	S=C(NCc1ccc(Cl)cc1)NC1CCN(Cc2ccccc2)CC1

One compound at a time, from the list above. Values in the order: KCNQ2 enhance | KCNQ2 enhance baseline
COc1ccccc1NS(=O)(=O)c1cccc(C(=O)NC2CCN(Cc3ccccc3)CC2)c1 reads 0.19 | 2.5
COCC(C)n1c(C)cc(C(=O)COC(=O)c2ccc(N3CCCC3=O)cc2)c1C (configuration not stated) reads 1.6 | -1.5

(continued)
KCNQ2 enhance	KCNQ2 enhance baseline	canonical_smiles
0.87	-1.2	CCC(=O)c1ccc(OCC(=O)Nc2ccccc2C(=O)N2CCCCC2)cc1
1.1	-0.85	CCOc1ccc(S(=O)(=O)NCCC(=O)NCc2ccco2)cc1
0.46	-0.23	Cc1c(C(=O)O)oc2c1/C(=N\O)CCC2
0.35	0.48	O=C(NS(=O)(=O)Nc1ccccn1)c1c[nH]c2ccccc12
1.6	-1.2	O=C(Cc1ccc(Cl)cc1Cl)Nc1cccc(S(=O)(=O)Nc2ccccc2F)c1
0.02	-0.11	Cc1sc(Nc2ccc([N+](=O)[O-])cc2)nc1-c1c(C)n(C)n(-c2ccccc2)c1=O
0.57	0.62	O=C(CCCn1c(=S)[nH]c2ccsc2c1=O)Nc1ccc2c(c1)OCO2
1.1	-0.77	CC(=O)Nc1cccc(/C(C)=N/NC(=O)c2c(-c3ccccc3Cl)noc2C)c1
2.3	-2.1	O=C(Nc1ccccc1O)c1cc2cc(Br)ccc2oc1=O
1.6	0.75	O=C(Nc1ccccc1C(F)(F)F)c1cc(-c2ccccc2O)on1
0.19	-0.05	COc1ccc(NC(=O)CCS(=O)(=O)c2ccc3c(c2)oc(=O)n3C)cc1
0.23	-0.73	Cc1ccccc1C(=O)OCCCN=C1NS(=O)(=O)c2ccccc21
0.65	-0.96	COC(=O)c1c(O)cc(=O)n2c1CCCCC2
1.1	-0.68	O=C(Nc1ccc(N2CCN(C(=O)c3ccccc3F)CC2)cc1)c1ncn[nH]1
0.54	-0.06	Cc1noc(C)c1S(=O)(=O)Nc1ccccc1Oc1ccccc1
1.9	-0.82	O=C(Cn1c2c(sc1=O)C1c3ccccc3OCC1CS2)Nc1ccc(Cl)cc1 (configuration not stated)
0.04	2.1	O=C(Cn1c(NCCO)nc2ccccc21)c1cccs1
0.02	0.71	O=C(Nc1ccc2c(c1)OCCO2)c1ccc(Cl)c(Cl)c1
0.25	0.09	CCC(C(=O)Nc1ccccc1F)n1nc(C)c2c(C)n(-c3ccccc3)nc2c1=O (configuration not stated)
0.19	-0.66	COc1ccccc1NC(=O)C(Cc1ccc(Cl)cc1)c1nn[nH]n1 (configuration not stated)

Arranged by the number under KCNQ2 enhance (lowest first): some entries from above
Structure,KCNQ2 enhance
Cc1ccccc1C(=O)OCCCN=C1NS(=O)(=O)c2ccccc21,0.23
O=C(NS(=O)(=O)Nc1ccccn1)c1c[nH]c2ccccc12,0.35
Cc1c(C(=O)O)oc2c1/C(=N\O)CCC2,0.46
O=C(CCCn1c(=S)[nH]c2ccsc2c1=O)Nc1ccc2c(c1)OCO2,0.57
O=C(Nc1ccccc1O)c1cc2cc(Br)ccc2oc1=O,2.3

Random excerpt: 6 entries already listed.
KCNQ2 enhance	KCNQ2 enhance baseline	canonical_smiles
0.46	-0.23	Cc1c(C(=O)O)oc2c1/C(=N\O)CCC2
0.35	0.48	O=C(NS(=O)(=O)Nc1ccccn1)c1c[nH]c2ccccc12
0.04	2.1	O=C(Cn1c(NCCO)nc2ccccc21)c1cccs1
1.6	0.75	O=C(Nc1ccccc1C(F)(F)F)c1cc(-c2ccccc2O)on1
0.57	0.62	O=C(CCCn1c(=S)[nH]c2ccsc2c1=O)Nc1ccc2c(c1)OCO2
2.3	-2.1	O=C(Nc1ccccc1O)c1cc2cc(Br)ccc2oc1=O

Remaining list, next part
KCNQ2 enhance	KCNQ2 enhance baseline	canonical_smiles
2.1	-1.2	O=C(Nc1cccc2ccccc12)c1ccc([N+](=O)[O-])o1
0.94	-1.4	CC(NC(=O)c1ccc(N2CCNCC2)c([N+](=O)[O-])c1)C12CC3CC(CC(C3)C1)C2 (configuration not stated)
0.42	-0.14	CN1CCN(C(=O)/C(=C/c2cccnc2)NC(=O)c2cccc(Br)c2)CC1
1.3	-1.2	Cc1cc(NC(=O)CCC(=O)N(CCC(C)C)CC(=O)NCC2CCCO2)no1 (configuration not stated)
0.81	-0.04	CCOc1ccccc1-c1n[nH]c(=S)o1
0.01	-0.33	COc1ccc2nc(N3CCCC(C(=O)NCCCN4CCN(C)CC4)C3)sc2c1 (configuration not stated)
1.3	-0.79	C=CCn1c(SCc2ccc(OC)cc2)nnc1-c1cccnc1
1.6	-2.2	N#Cc1c(Cn2cncn2)nc(=O)n(-c2ccccc2)c1N

Shown with two lines to a compound: entries from further up
Second line of a record: KCNQ2 enhance | KCNQ2 enhance baseline
- Cc1cc(NC(=O)CCC(=O)N(CCC(C)C)CC(=O)NCC2CCCO2)no1 (configuration not stated)
    1.3 | -1.2
- CN1CCN(C(=O)/C(=C/c2cccnc2)NC(=O)c2cccc(Br)c2)CC1
    0.42 | -0.14

Screening data: PubChem, Johns Hopkins Ion Channel Center
